Screening data as filed in PubChem.
OX1R antag-1 – blocks the human orexin 1 receptor | CHO/OX1R cells, Fluo-8 calcium fluorescence, orexin A | inhibition, % at 5 µM | actives 0.43% (n = 330,000) | AID 434989;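 active means inhibition above its plate's threshold, mean inhibition of all tested compounds on the plate plus 3 SD, cut at about 37% in these data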;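 further: 0% = orexin A challenge wells and 100% = SB-334867-A antagonist wells; not every result past the cut was called active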
Target sequence (O43613 whole entry, looked up): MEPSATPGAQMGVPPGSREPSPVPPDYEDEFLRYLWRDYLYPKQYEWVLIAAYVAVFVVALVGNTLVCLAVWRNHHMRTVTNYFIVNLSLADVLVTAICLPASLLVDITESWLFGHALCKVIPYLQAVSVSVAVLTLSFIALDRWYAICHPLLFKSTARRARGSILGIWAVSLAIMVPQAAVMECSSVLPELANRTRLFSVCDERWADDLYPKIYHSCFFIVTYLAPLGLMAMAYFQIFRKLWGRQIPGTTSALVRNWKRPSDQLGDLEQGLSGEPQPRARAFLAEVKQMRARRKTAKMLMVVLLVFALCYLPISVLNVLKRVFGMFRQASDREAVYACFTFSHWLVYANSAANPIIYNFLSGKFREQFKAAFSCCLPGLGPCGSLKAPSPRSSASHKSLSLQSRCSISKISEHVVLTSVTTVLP
OX1R antag-2 – blocks the human orexin 1 receptor. AID 485270. actives 1.8% (n = 330,000). OX1R-expressing cells, FRET antagonist read-out. inhibition, % at 6.6 µM. O43613; in the data active means inhibition mostly above about 38%, no sharp cut-off; inactive means mostly below about 40%;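 further: 0% = agonist challenge alone and 100% = reference antagonist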
The depositor's hits bear a star. Not all compounds are listed; most or all hits stand in other tables.

1) Cc1ccc(NC(=O)CCC(=O)NNC(=O)c2ccccc2Cl)c(C)c1
2) C/C(=N\Nc1ccc(Cl)c(C(=O)O)c1)c1ccccn1
3) O=C(O)C1CCC(N2C(=O)c3c(Cl)c(Cl)c(Cl)c(Cl)c3C2=O)CC1 (stereo not drawn)
4) CCCCCCCN1C(N(C)C)=NC[C@@H]1Cc1ccccc1
5) CCCSC1=C(C#N)C(c2ccc(Cl)cc2Cl)CC(=O)N1 (stereo not drawn)
6) O=C(c1cc2ccccc2oc1=O)N1CCSC1c1ccco1 (stereo not drawn)

compound no.,1,2,3,4,5,6
OX1R antag-1,-3,-14,-9,-6,-17,-21
OX1R antag-2,14,6,10,15,-1,14

7) CCOc1ccccc1NC(=O)CSc1nncc2ccccc12
8) Cc1cc(C(=O)CSc2cccc[n+]2[O-])c(C)n1-c1ccc(Br)cc1
9) Cc1ccn2c(=O)nc(SCC(=O)N3CCC(Cc4ccccc4)CC3)nc2c1
10) CC1(C)Cc2cccc(OCC(=O)OCC(=O)Nc3ccccc3)c2O1
11) Cc1cc(C(=O)CCC(=O)NCc2ccccc2F)c(C)s1
12) CCOC(=O)C(C)c1ccc2cc(OC)ccc2c1 (stereo not drawn)

compound no.,7,8,9,10,11,12
OX1R antag-1,-3,-14,-28,-12,-22,-25
OX1R antag-2,16,13,14,5,17,10

13) NC(=O)CSc1nnc(-c2ccc(S(=O)(=O)N3CCCC3)cc2)n1Cc1ccco1
14) COc1cccc(OC)c1CC1SC(=O)NC1=O (stereo not drawn)
15) CC(=O)N1CCN(C(=O)c2ccc(OC3CCN(Cc4ccccn4)CC3)cc2)CC1
16) O=C(c1ccsc1)N1CCCC(N2CCN(c3cccc(C(F)(F)F)c3)CC2)C1 (stereo not drawn)
17) NC(=O)C1CCN(C(=O)c2ccc(NS(=O)(=O)c3ccc(F)c(F)c3)cc2)CC1
18) COC(=O)c1ccc2c(c1)S(=O)(=O)NC(=NCc1ccco1)S2

compound no.,13,14,15,16,17,18
OX1R antag-1,1,0,-21,-47,1,-7
OX1R antag-2,10,18,25,16,4,7

Shown with values under each structure: entries from further up.
Below each SMILES – OX1R antag-1	OX1R antag-2
17	NC(=O)C1CCN(C(=O)c2ccc(NS(=O)(=O)c3ccc(F)c(F)c3)cc2)CC1
    1	4
13	NC(=O)CSc1nnc(-c2ccc(S(=O)(=O)N3CCCC3)cc2)n1Cc1ccco1
    1	10

(list continues)
19) Cc1ccc(-c2nnc(N(C)C(=O)c3ccccn3)s2)cn1
20) CC(C)(/C=N/O)/[N+]([O-])=C/C=[N+](\[O-])C(C)(C)/C=N/O
21) CC1C/C(=N\NC(=O)c2ccc([N+](=O)[O-])cc2)CC(C)(C)C1 (stereo not drawn)
22) CN(C)c1cc(-c2ccccc2)nc(-c2ccccc2)n1
23) O=C1NC(=O)C2(CCc3ccccc32)N1 (stereo not drawn)
24) CCC1CCCCN1C(=O)CSc1nc2c(c(=O)n(C)c(=O)n2C)n1C (stereo not drawn)

compound no.,19,20,21,22,23,24
OX1R antag-1,-13,-5,-21,-5,-17,-16
OX1R antag-2,7,17,33,-8,21,9

25) COc1ccc2[nH]c(=O)c(CN(CCN(C)C)C(=O)NCc3ccccc3)cc2c1
26) CCOC(=O)c1cnc(SC2CC(=O)N(c3ccccc3)C2=O)nc1N (stereo not drawn)
27) CCc1nnc(NC(=O)CSc2ccc(-c3ccc(-n4cccn4)cc3)nn2)s1
28) CCCNC(=S)N1CCN(C(c2ccccc2)c2ccccc2)CC1
29) Cc1ccc2nc(CSc3nnc(Cc4cccs4)n3C3CCCCC3)cc(=O)n2c1
30) Cc1cc(C)nc(/N=C(\N)Nc2ccc3c(c2)OCCO3)n1

compound no.,25,26,27,28,29,30
OX1R antag-1,-22,-11,-24,-11,-23,-8
OX1R antag-2,19,16,9,28,27,11

31) COCCNC(=O)C(c1ccc(C)o1)N(CCOC)C(=O)Cn1nnc2ccccc21 (stereo not drawn)
32) Cc1cc(C)cc(C(=O)NCC(=O)OCC(=O)NCC(F)(F)F)c1
33) CC(C)c1ccc(Nc2nc(NCc3ccco3)nc(N3CCOCC3)n2)cc1
34) CCN1CCN(c2c(Cl)cccc2NC(=O)c2ccc(Br)o2)CC1
35) CCN(c1ccc2c(c1)OCO2)S(=O)(=O)c1cc(Br)cc2c1N(C(C)=O)CC2
36) C=CCn1nc2ccccc2c1OC

compound no.,31,32,33,34,35,36
OX1R antag-1,-8,-11,-25,-27,-4,-16
OX1R antag-2,17,-6,29,15,11,7

37) COc1ccc(F)cc1C(=O)C1CCCN(C(=O)CCN2CCCCO2)C1 (stereo not drawn)
38) COc1ccc(NC(=O)CN(C)C(=O)CNC(=O)c2sc3ccccc3c2Cl)cc1
39) CCOc1ccc2nc(NC(=O)CN3CCN(C)CC3)sc2c1
40) O=C(Nc1cccc(F)c1)Nc1ccnn1C1CCN(C(=O)CCN2CCCO2)CC1
41) CC(=O)c1ccc(OCC(O)CN2CCC(C)CC2)cc1 (stereo not drawn)
42) CC(=O)c1ccc(-c2ccc(/C=C(/Sc3n[nH]c(C)n3)C(=O)O)o2)cc1

compound no.,37,38,39,40,41,42
OX1R antag-1,-15,-33,-62,-16,-24,-2
OX1R antag-2,10,13,26,4,4,28

43) CCN(C[C@H]1N[C@@](Cc2ccccc2)(C(=O)OC)[C@H]2C(=O)N(Cc3ccccc3)C(=O)[C@@H]12)S(=O)(=O)c1ccc(-c2ccccc2)cc1
44) CSc1nc2c(c(=O)[nH]c(=O)n2C)n1CCCc1ccccc1
45) CCOC(=O)N1CCC(NC(=O)CNS(=O)(=O)c2ccc(Br)s2)CC1
46) O=C(CC1S/C(=N/N=C/c2ccco2)NC1=O)Nc1ccccc1 (stereo not drawn)
47) CC(Cl)C(=O)Nc1c2c(nn1-c1ccccc1)CSC2 (stereo not drawn)
48) CN(C)c1ccc(C(=S)N2CCCC2)cc1Br

compound no.,43,44,45,46,47,48
OX1R antag-1,-24,-16,-14,-5,-14,-21
OX1R antag-2,4,-6,-2,1,22,3

49) Cc1ccc(C)c(S(=O)(=O)Nc2ccc(C(N)=O)cc2)c1
50) O=C(N/N=C/c1ccc(N2CCOCC2)cc1)c1ccc(NS(=O)(=O)c2cccs2)cc1
51) O=C(CCSc1ccc(Br)cc1)Nc1cccnc1
52) CCOC(=O)/C(C#N)=C/c1cc(C)n(-c2ccccc2)c1C
53) CCCOc1ccc(/C(O)=C2/C(=O)C(=O)N(CCN(C)C)C2c2ccc(OC)c(OC)c2)cc1 (stereo not drawn)
54) COc1ccccc1Nc1nc2nonc2[nH]c1=O

compound no.,49,50,51,52,53,54
OX1R antag-1,-20,-18,-27,-9,-8,-6
OX1R antag-2,25,7,12,25,31,37

55) COC(=O)/C=C1/S/C(=N/N=C/c2ccc(N(C)C)cc2)NC1=O
56) O=C(NCCc1ccccc1)C1CCCN1S(=O)(=O)c1ccccc1 (stereo not drawn)
57) O=C(Nn1c(-c2ccncc2)nc2ccccc2c1=O)c1ccccc1Br
58) COc1ccc(NC(=S)N2CCN(C/C=C/c3ccccc3)CC2)c(OC)c1
59) CCOc1cc(C(=O)OCC(=O)Nc2ccc(Cl)cn2)ccc1OCC(=O)N1CCOCC1
60) COCCCNC(=O)c1ccc(CSCc2ccc(C)cc2)o1

compound no.,55,56,57,58,59,60
OX1R antag-1,3,-27,-42,-21,-35,-30
OX1R antag-2,5,4,21,7,26,11

61) CC(C)Cn1c(C(C)NC(=O)Cc2ccccc2)nc2ccccc21 (stereo not drawn)
62) CCC1CCCCN1C(=O)COC(=O)c1cc2ccccc2cc1O (stereo not drawn)
63) CN(C)c1nc(N(C)C)nc(N(C)C)n1
64) CC/C(=N\OC(=O)c1ccc(OC(C)C)cc1)c1ccc(C)cc1
65) Cc1cccc(N/N=C/c2ccc(C)s2)c1
66) COc1ccccc1C(=O)NCC(=O)N/N=C/c1cccc(Cl)c1

compound no.,61,62,63,64,65,66
OX1R antag-1,-30,-20,-1,10,-51,-25
OX1R antag-2,6,48,7,35,3,15

67) CN(Cc1ccccc1)S(=O)(=O)c1ccc(NC(=O)c2ccccc2C(=O)O)cc1
68) Cc1nc(SCC(=O)N2CCCCCC2)[nH]c(=O)c1C
69) CCOc1ccc(NC(=O)CN(C)C(=O)c2c(-c3ccccc3)noc2C)cc1OCC
70) COc1ccccc1/C=C/C=N/NC(=O)CC1C(=O)NN=C1C (stereo not drawn)
71) Cc1noc(C)c1C(=O)NCCC1=CCCCC1
72) O=C(c1ccco1)N1CCc2[nH]nc(-c3ccccc3)c2C1

compound no.,67,68,69,70,71,72
OX1R antag-1,-13,5,-10,-5,1,-10
OX1R antag-2,-1,7,16,10,-2,12

73) Cc1ccc(-n2nnnc2-c2cccnc2)cc1
74) CCOC(=O)/C(C(=O)Nc1ccc(Cl)cc1Cl)=C1/NC(C)(C)Cc2ccccc21
75) CCN(CC)S(=O)(=O)c1ccc(N2CCOCC2)c(NC(=O)C2CSC3(C)CCC(=O)N23)c1 (stereo not drawn)
76) COC(=O)CSc1nnc(CCc2nc3ccccc3[nH]2)n1C
77) COC(=O)c1ccc(N2C(=O)C3CC(C)=C(C)CC3C2=O)cc1 (stereo not drawn)
78) COc1ccc(NC(=O)NCCCN2CCCC2=O)cc1

compound no.,73,74,75,76,77,78
OX1R antag-1,-10,-13,-24,-6,-18,10
OX1R antag-2,7,3,28,15,11,7

79) CNC(=S)N/N=C/c1ccco1
80) O=C(Nc1ccc2c(c1)OCCO2)c1cnc2n(c1=O)CCS2
81) O=C(Nc1cnn(Cc2ccc(F)cc2)c1)c1cc2nc(-c3ccco3)cc(C(F)(F)F)n2n1
82) Oc1cccc(/C=N/n2c(C3CCCCC3)n[nH]c2=S)c1
83) c1cc(Nc2ncnc3sc4c(c23)CCC4)ccn1
84) Cc1ccc(S(=O)(=O)NC(C)C(=O)N2CCOCCOCCOCC2)cc1 (stereo not drawn)

compound no.,79,80,81,82,83,84
OX1R antag-1,3,-21,-4,-20,-5,-16
OX1R antag-2,17,11,0,0,-4,10

85) COc1ccc(CCNC(=O)CSc2nc(C)nc3sccc23)cc1OC
86) Cc1c(Cl)c([N+](=O)[O-])nn1CC(=O)Nc1ccc2c(c1)OCO2
87) CCCCn1ccc(O)c(Cc2ccc(F)cc2)c1=O
88) CCc1ccc(C(=O)CN(C#N)c2nc(C)cc(C)n2)cc1
89) CCOc1ccc(C(C)=O)cc1COc1ccc(-c2nnco2)cc1
90) Cc1ccc(C(=O)NCC(=O)N2CCN(c3ncccn3)CC2)s1

compound no.,85,86,87,88,89,90
OX1R antag-1,-10,-17,-16,-16,-9,-3
OX1R antag-2,5,2,3,27,27,17

91) O=C(O)C1CCC(c2ccc(-c3ccccc3)cc2)CC1 (stereo not drawn)
92) Cc1ccccc1N1CCN(CCCN2C(=O)C3CCCCN3C2=O)CC1 (stereo not drawn)
93) Clc1ccc(SCc2nc3ccccc3[nH]2)cc1
94) Cc1ccc(C)c(CN2C(=O)c3ccccc3S(=O)(=O)c3ccc(C(=O)N4CCN(C)CC4)cc32)c1
95) COc1ccc(C(=O)NC(=S)Nc2nnn(C)n2)cc1
96) O=C(Oc1ccccc1C(=S)N1CCOCC1)c1ccccc1
97) Cc1ccc(C(C(=O)NCc2ccco2)N(C(=O)CNC(=O)c2cccs2)c2ccc(C)cc2)cc1 (stereo not drawn)

compound no.,91,92,93,94,95,96,97
OX1R antag-1,1,-21,-16,-45,-6,-26,-19
OX1R antag-2,9,0,14,10,9,16,0

Gathered by group, those above with a furan ring, fused or not.
6) O=C(c1cc2ccccc2oc1=O)N1CCSC1c1ccco1 (stereo not drawn)
13) NC(=O)CSc1nnc(-c2ccc(S(=O)(=O)N3CCCC3)cc2)n1Cc1ccco1
18) COC(=O)c1ccc2c(c1)S(=O)(=O)NC(=NCc1ccco1)S2
31) COCCNC(=O)C(c1ccc(C)o1)N(CCOC)C(=O)Cn1nnc2ccccc21 (stereo not drawn)
33) CC(C)c1ccc(Nc2nc(NCc3ccco3)nc(N3CCOCC3)n2)cc1
34) CCN1CCN(c2c(Cl)cccc2NC(=O)c2ccc(Br)o2)CC1
42) CC(=O)c1ccc(-c2ccc(/C=C(/Sc3n[nH]c(C)n3)C(=O)O)o2)cc1
46) O=C(CC1S/C(=N/N=C/c2ccco2)NC1=O)Nc1ccccc1 (stereo not drawn)

compound no.,6,13,18,31,33,34,42,46
OX1R antag-1,-21,1,-7,-8,-25,-27,-2,-5
OX1R antag-2,14,10,7,17,29,15,28,1

60) COCCCNC(=O)c1ccc(CSCc2ccc(C)cc2)o1
72) O=C(c1ccco1)N1CCc2[nH]nc(-c3ccccc3)c2C1
79) CNC(=S)N/N=C/c1ccco1
81) O=C(Nc1cnn(Cc2ccc(F)cc2)c1)c1cc2nc(-c3ccco3)cc(C(F)(F)F)n2n1
97) Cc1ccc(C(C(=O)NCc2ccco2)N(C(=O)CNC(=O)c2cccs2)c2ccc(C)cc2)cc1 (stereo not drawn)

compound no.,60,72,79,81,97
OX1R antag-1,-30,-10,3,-4,-19
OX1R antag-2,11,12,17,0,0
